Mtb H37Rv = M. tuberculosis H37Rv growth inhibitors, H37Rv strain (AID 1626) | M. tuberculosis H37Rv growth inhibition; higher % means a stronger effect | inhibition, % at 10 µM, or IC50 in µM where a hit was titrated | actives 0.95% (n = 220,000);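 active = confirmed in a dose series; inconclusive = inhibition above 80% but not taken into the dose series; inactive = below 80% or under 30% at every dose of the series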;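 also: bacteria incubated seven days before Alamar blue readout; 0% = bacteria only wells and 100% = bacteria with antibiotic wells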
RecA splice inh = blocks M. tuberculosis RecA intein splicing; cell-free RecA intein splicing, fluorescence; actives 0.75% (n = 290,000); AID 2221; inhibition, %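 (about 9 µM by stock and volumes)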; P9WHJ3; in the data active = inhibition above about 30%; inconclusive = no clear call, values can overlap the other calls;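 also: 0% = vehicle wells and 100% = reference inhibitor control wells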
Target sequence (P9WHJ3 whole entry, looked up, canonical isoform): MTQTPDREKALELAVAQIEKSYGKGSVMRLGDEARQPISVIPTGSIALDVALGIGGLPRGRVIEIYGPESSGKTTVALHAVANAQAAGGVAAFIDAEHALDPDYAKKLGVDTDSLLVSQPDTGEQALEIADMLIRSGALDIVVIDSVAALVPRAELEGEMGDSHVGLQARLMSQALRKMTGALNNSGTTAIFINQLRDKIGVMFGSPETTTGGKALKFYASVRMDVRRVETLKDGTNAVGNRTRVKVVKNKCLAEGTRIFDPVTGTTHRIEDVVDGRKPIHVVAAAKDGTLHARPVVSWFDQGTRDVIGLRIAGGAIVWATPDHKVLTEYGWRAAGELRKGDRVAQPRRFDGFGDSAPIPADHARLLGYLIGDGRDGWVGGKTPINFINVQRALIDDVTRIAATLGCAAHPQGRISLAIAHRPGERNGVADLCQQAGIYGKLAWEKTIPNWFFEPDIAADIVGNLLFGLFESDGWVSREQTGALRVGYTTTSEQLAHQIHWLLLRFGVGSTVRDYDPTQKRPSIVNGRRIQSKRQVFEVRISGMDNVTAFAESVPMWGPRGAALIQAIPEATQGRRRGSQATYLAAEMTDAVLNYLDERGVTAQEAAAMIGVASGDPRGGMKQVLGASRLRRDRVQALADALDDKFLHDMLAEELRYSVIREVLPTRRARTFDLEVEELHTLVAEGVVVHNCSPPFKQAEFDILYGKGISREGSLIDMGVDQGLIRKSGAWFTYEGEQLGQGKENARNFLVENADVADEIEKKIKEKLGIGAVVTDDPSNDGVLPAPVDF
YopH PTP inh = inhibitors of Yersinia enterocolitica YopH tyrosine phosphatase. inhibition, %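 (about 10 µM by stock and volumes)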. actives 0.16% (n = 140,000). fluorescence Ex485/Em525;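 active = inhibition of 50% or more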;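 also: controls were vehicle for no effect and minimum signal wells for full effect; inactives centre near -20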
Mtb bLac sens = beta-lactam sensitization of Mtb H37Rv. M. tuberculosis H37Rv growth with meropenem, percent inhibition; hits of this screen are not shown here. inhibition, % at 25 µM. actives 0.27% (n = 330,000). AID 434955;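 active = about 74% or more and at least 40 points above the plate without the antibiotic, then above 30% in a dose series; inconclusive = first-round hits that could not be retested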;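 also: growth measured after seven days incubation then overnight dye step; 0% = bacteria only wells and 100% = bacteria with antibiotic; twin plates without the antibiotic show which effects depend on it; some results filed as inactive read as strong as hits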
Arbovirus inh = arbovirus infection inhibition; actives 0.37% (n = 200,000); arbovirus infection cell-based antiviral screen; inhibition, % at 10 µM;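 active = inhibition from about 30%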;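 also: bluetongue infection of BSR cells; cell survival read as ATP light after 72 h; 0% = infected wells without compound and 100% = uninfected wells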
* hit, by the source's call; ? = inconclusive; . = not tested or not shown. Some of the compounds tested, so the mix of outcomes need not match the whole.

Fields – Arbovirus inh, RecA splice inh, Mtb H37Rv, YopH PTP inh, Mtb bLac sens
> CC(C)=C(NC(=O)c1ccccc1)C(=O)NCCc1nc2ccccc2[nH]1
  ., 5.2, ., ., -3
> O=C(C1CCCN1S(=O)(=O)c1ccc(Cl)c(Cl)c1)N1CCCCC1 (stereo not given)
  11, -1.3, -14%, -30, 2
> CC(Oc1ccccc1F)c1ccnc2nc(/N=C/N(C)C)nn12 (stereo not given)
  -2, 0.3, 4%, ., -5
> Cc1ccc2cc(CN(c3cccc(C)c3C)S(=O)(=O)c3ccccc3)c(=O)[nH]c2c1
  ., -1.6, ., ., 34
> CC(C)c1onc(C(=O)N(C)Cc2ccccc2)c1[N+](=O)[O-]
  4, -0.6, 10%, -6, -4
> CCCn1c(SCC(=O)Nc2nc(-c3ccc(OC)cc3)cs2)nc2c1c(=O)n(C)c(=O)n2C
  -14, -2.6, -4%, -23, 2
> Cc1nn(C(=O)c2cccs2)c(C)c1CN1C(=O)c2ccccc2C1=O
  1, 8.8, -4%, -15, 3
> S=C(NCc1ccccc1)NCc1ccc(CNC(=S)NCc2ccccc2)cc1
  1, 0.2, 5%, -30, 3
> COc1ccc(-c2nnc(NC(=O)c3ccc(S(=O)(=O)N4COCC4(C)C)cc3)o2)cc1
  -28, -0.9, ., -4, 93
> CCCC(CCC)C(=O)Nc1ccc2c(c1)N(C(=O)CN1CCN(C)CC1)c1ccccc1CC2
  -28, -2.8, -3%, ., -3
> O=C(Nc1nc2ccccc2s1)c1ccc2c(c1)S(=O)(=O)c1ccccc1C2=O
  3, ., 0%, ., .
> CS(=O)(=O)Nc1ccc(C(=O)NCCSc2ccc(Cl)cc2)cc1
  ., -1.1, ., ., 4
> CC(=O)c1cc(C#N)c(SCC(=O)O)nc1C
  6, -2.0, -2%, 11, 1
> CCc1ccc(OCC(=O)O/N=C(\N)Cc2ccc([N+](=O)[O-])cc2)cc1
  5, 10, 21%, -28, 11
> CCCCOc1ccc(-c2nnc(-c3ccncc3)o2)cc1
  21, 4.3, 0%, -25, 85
> CCc1nnc(NS(=O)(=O)c2ccc(NC(=S)NC(=O)c3ccc(F)cc3)cc2)s1
  0, -2.3, 10%, -16, 6
> CC(C)C(=O)NNC(=O)CC(=O)Nc1ccccc1C(=O)O
  ., -1.1, 4%, ., -7
> CC1CCN(CCCNC(=O)c2ccc(CSCc3cccc(Cl)c3)o2)CC1
  -8, 1.7, -6%, -9, -17
> CNC(=O)c1c(NC(=O)CCS(=O)(=O)c2ccc(C)cc2)sc(C)c1C
  ., -0.5, ., ., -13
> O=C(NCC(c1ccco1)N1CCc2ccccc2C1)c1ccc([N+](=O)[O-])cc1 (stereo not given)
  ., 6.7, ., ., -13

Continued.
Fields – Arbovirus inh, RecA splice inh, Mtb H37Rv, YopH PTP inh, Mtb bLac sens
> O/N=C(\c1ccc(Cl)cc1)c1ncc(C(F)(F)F)cc1Cl
  -18, -0.1, -4%, -29, 3
> COc1ccc(OC)c(NC(=O)C2CC(/C=C/c3ccccc3)=NO2)c1 (stereo not given)
  ., -1.0, ., ., -1
> CSc1nnc(-c2ccccc2)o1
  1, -0.1, -19%, -7, -3
> O=C(NCc1cccnc1)c1ccc(-c2cccc(Cl)c2Cl)o1
  -15, 5.4, 1%, ., 61
> Cc1ccc(C)c(NC(=O)c2cnn(-c3ccccc3)c2C)c1
  ., -1.6, ., ., -3
> Cc1nn(Cc2ccccc2)c(C)c1NC(=O)c1cc(-c2cccs2)on1
  -16, -2.6, 5%, 9, 53
> CCN(CC)C(=O)c1c(C)[nH]c(=S)c(C#N)c1-c1ccco1
  4, 0.0, -5%, ., 6
> COc1ccc(NC(=O)c2noc3c2CCCCC3)cc1
  -1, 0.6, 3%, ., -9
> c1ccc2c(c1)[nH]c1c(N3CCCC3)ncnc12
  15, -2.3, 9%, -26, -9
> Cc1cc(N2CCCCC2)n2nc(C)c(-c3ccccc3)c2n1
  -3, 0.0, 10%, -40, 4
> O=C(Nc1ccc(C(F)(F)F)cc1)C1(c2ccccc2)CC1
  3, 2.6, 2%, -29, 67
> CC(C)Oc1ccc(Cc2c(O)[nH]c(=O)[nH]c2=O)cc1
  1, -1.5, -14%, -26, 0
> Cn1c(N)c(C(=O)c2cc(-c3ccccc3)nc3ccccc23)c(=O)n(C)c1=O
  0, -0.9, 0%, -14, -7
> COc1cc(OC)cc(C(=O)N[C@H](C(=O)OCC(=O)NC(=O)NC(C)(C)C)C(C)C)c1
  -2, -1.4, -1%, ., -5
> COC(=O)CCC(=O)Nc1ccccc1C(N)=O
  1, ., 0%, -41, -5
> CCOC(=O)c1nn(-c2ccc(C)cc2)c2nc(Nc3ccccc3)cc(=O)n12
  20, 4.0, ?, -20, 99
> Cc1c(NC(NC(=O)CF)C(Cl)(Cl)Cl)c(=O)n(-c2ccccc2)n1C (stereo not given)
  1, -4.8, -7%, ., 2
> OCC1(CCc2ccccc2)CCN(Cc2cc(Cl)ccc2O)CC1
  20, 2.5, 1%, ., 0
> Cc1cccc(CN2CCN(C(=O)c3ccccc3F)CC2)c1
  -5, ., -4%, -20, -7
> N/C(=N\OC(=O)C12CC3CC(CC(C3)C1)C2)c1cccnc1
  0, 3.2, -6%, -53, 5

Later entries.
Fields – Arbovirus inh, RecA splice inh, Mtb H37Rv, YopH PTP inh, Mtb bLac sens
> O=c1n(-c2ccccc2)c(=O)n2n1CC(O)C2
  0, -0.1, -8%, ., 1
> Cc1oc2c(CN3CCCC(C)C3)c(O)ccc2c(=O)c1-c1ccccc1 (stereo not given)
  ., -2.2, ., ., ?
> COC(=O)c1ccccc1NC(=O)COc1ccc2c(c1)OCO2
  ., -0.4, ., ., 19
> O=C(C1CC(=O)N(c2ccc3c(c2)OCCO3)C1)N1CCN(c2cccc(C(F)(F)F)c2)CC1 (stereo not given)
  ., -3.4, ., ., 99
> CCN1C(=O)/C(=C\N2CCN(c3ccc(F)cc3)CC2)SC1=S
  -16, 0.4, 14%, -24, ?
> CC1CC1C(=O)OCC(=O)Nc1cccc(S(=O)(=O)NC2=NCCCCC2)c1 (stereo not given)
  ., -2.3, -7%, ., -9
> COc1c[nH]n(-c2ccccc2)c(=O)c1=O
  ., 1.2, ., ., 3
> CCc1cc2c(C)ccc(C)c2nc1SCC(=O)Nc1c[nH]c(=O)[nH]c1=O
  -5, 0.5, -3%, ., 12
> CCCCCCc1nc2c(=O)[nH]c3ccccc3c2o1
  1, 1.8, -8%, -21, 0
> Cc1cc([N+](=O)[O-])ccc1NCc1cccc2ccccc12
  ., 9.0, 14%, -43, 3
> CCOC(=O)N1CCN(C(=O)c2ccc3c(c2)NC(=O)/C(=C\c2ccc(OC)c(OC)c2)S3)CC1
  ., -5.2, ., ., 51
> COC(=O)c1ccncc1C(=O)Nc1ccc(F)cc1
  18, -3.8, -8%, ., -8
> COc1ccccc1N1CCN(C(=O)c2cc(-c3ccc4c(c3)OCO4)on2)CC1
  6, 0.1, -1%, -56, -11
> O=C(NC(Cc1c[nH]c2ccccc12)C(=O)O)/C(=C/c1ccco1)NC(=O)c1ccccc1 (stereo not given)
  4, 1.6, 0%, ., -2
> Cc1ccccc1N=C(NO)c1nonc1N
  -4, 0.4, 1%, ., 4
> CCN(CC)CCN1C(=O)C(=O)/C(=C(/O)c2ccc(S(=O)(=O)N3CCOCC3)cc2)C1c1ccc(Cl)cc1 (stereo not given)
  ., -0.8, ., ., -1
> Nc1nc2nc(-c3ccc(Cl)cc3)cc(C(F)(F)F)n2n1
  -7, -35, -2%, -16, -4
> CC(C)(C)C(=O)c1sc(Nc2ccccc2)nc1N
  6, 5.3, 23%, 27, 14
> Cn1c(CN2CCCCC2)nc2cc(NC(=O)c3ccccc3Cl)ccc21
  -25, 0.1, -4%, 24, -3
> COC(=O)C1=COC(C)C2CN3CCC4(C(=O)Nc5ccccc54)C3CC12 (stereo not given)
  ., 1.6, -9%, ., -6

The list goes on.
Fields – Arbovirus inh, RecA splice inh, Mtb H37Rv, YopH PTP inh, Mtb bLac sens
> CS(=O)(=O)Nc1ccc(C(=O)Nc2ccccc2C(=O)N2CCCC2)cc1
  4, ., 0%, -34, -15
> CCN1CCN(S(=O)(=O)c2ccc(C(=O)Nc3sc4c(c3C(N)=O)CCN(CC)C4)cc2)CC1
  ., -11, ., ., -9
> CC(C)(C)C(=O)N1NC(=Nc2ccccc2)SC1(C)C
  ., 1.5, 3%, ., 14
> O=C(C/C=N\OCc1ccc(Cl)cc1Cl)Nc1ccccc1
  4, 2.9, 9%, ., 2
> O=C(c1cc(=O)[nH]c2ccc(Br)cc12)N1CCC2(CC1)OCCO2
  6, -6.7, -3%, -17, -7
> O=C(CCCOc1ccccc1)NCc1ccco1
  2, 0.1, -4%, -35, -17
> Cc1cccc(C)c1OCC(=O)NNC(=O)CCNC(=O)c1ccc(Br)cc1
  ., -2.0, ., ., -7
> O=C(c1ccco1)N1CCN(C(=O)c2nn3cccnc3c2Cl)CC1
  5, 1.3, -2%, 19, -8
> COc1ccc(OC)c(NC(=O)C2CCN(S(=O)(=O)c3c(C)noc3C)CC2)c1
  7, ., 1%, -24, -3
> COc1ccccc1C(=O)Nc1sc(C(=O)N2CCCC2)c(C)c1C#N
  -3, -1.1, -6%, ., 1
> COc1ccc(C2CC(c3cccs3)=NN2S(=O)(=O)c2ccc(C)cc2)cc1 (stereo not given)
  ., 5.1, 5%, -11, -13
> O=S(=O)(c1c(Cl)sc(Cl)c1Br)N1CCCC1
  ., 0.6, -2%, ., 2
> COCCNC(=O)CSc1nc2cc(OC)c(OC)cc2c(=O)n1Cc1ccco1
  -2, -7.6, -10%, -45, -3
> Cc1cc(NC(=O)C(C)N2C(=O)c3ccccc3S2(=O)=O)no1 (stereo not given)
  ., -1.1, ., ., 2
> COc1ccc(NC(=O)C(C)Sc2nnc3c4c(nc(-c5ccc(OC)cc5)n23)CC(C)(C)OC4)cc1 (stereo not given)
  -8, -5.3, 4%, -16, 10
> Cc1cccc(N2CCN(CC(=O)Nc3ccc(S(=O)(=O)N4CCOCC4)cc3)CC2)c1C
  ., -3.6, ., ., 7
> CCC(=O)N1CCc2cc(Br)cc(S(=O)(=O)NCCN3CCCCC3CC)c21 (stereo not given)
  5, ., -4%, -28, -1
> Cc1ccc(-c2c(NC(=O)C(C)C)n(C)c3ccccc3c2=O)cc1
  ., -2.6, ., ., 5
> CCOc1ccc(/C(O)=C2/C(=O)C(=O)N(CC3CCCO3)C2c2ccco2)cc1 (stereo not given)
  2, 1.9, -11%, -42, 0
> O=C(Nc1nc2nccc(-c3ccccc3)n2n1)c1ccc(F)cc1
  -10, -6.1, 2%, -6, -1

The final 6 records of the section above come first, to join the parts:
Fields – Arbovirus inh, RecA splice inh, Mtb H37Rv, YopH PTP inh, Mtb bLac sens
> COc1ccc(NC(=O)C(C)Sc2nnc3c4c(nc(-c5ccc(OC)cc5)n23)CC(C)(C)OC4)cc1 (stereo not given)
  -8, -5.3, 4%, -16, 10
> Cc1cccc(N2CCN(CC(=O)Nc3ccc(S(=O)(=O)N4CCOCC4)cc3)CC2)c1C
  ., -3.6, ., ., 7
> CCC(=O)N1CCc2cc(Br)cc(S(=O)(=O)NCCN3CCCCC3CC)c21 (stereo not given)
  5, ., -4%, -28, -1
> Cc1ccc(-c2c(NC(=O)C(C)C)n(C)c3ccccc3c2=O)cc1
  ., -2.6, ., ., 5
> CCOc1ccc(/C(O)=C2/C(=O)C(=O)N(CC3CCCO3)C2c2ccco2)cc1 (stereo not given)
  2, 1.9, -11%, -42, 0
> O=C(Nc1nc2nccc(-c3ccccc3)n2n1)c1ccc(F)cc1
  -10, -6.1, 2%, -6, -1
> Cc1ccc(OCC(=O)O/N=C(\N)Cc2ccc(Cl)cc2)cc1
  5, 2.8, 5%, 6, 0
> COc1ccc([N+](=O)[O-])cc1N(CC(=O)Nc1ccccc1C(=O)N1CCOCC1)S(C)(=O)=O
  ., -4.0, ., ., -6
> CCOC(=O)C(Cc1ccccc1)NS(=O)(=O)c1ccc(NC(C)=O)cc1 (stereo not given)
  5, 3.8, -1%, 3, 14
> Cc1ccccc1OCc1nnc(SCc2cc(=O)[nH]c3ccccc23)n1-c1ccccc1
  17, -0.2, 10%, -25, 6
> CC(=O)N1c2ccc(S(=O)(=O)N3CCCC(C(=O)Nc4cc(C)cc(C)c4)C3)cc2CC1C (stereo not given)
  ., 3.4, ., ., 1
> CCCn1c(SCC(=O)NCC2CCCO2)nc2c1c(=O)n(C)c(=O)n2C (stereo not given)
  5, -0.4, -4%, -15, -9
